# Source: PubChem BioAssay (National Center for Advancing Translational Sciences (NCATS))
# VDR inh – inhibitors of human vitamin D receptor | AID 504847 | VDR-SRC2-3 peptide fluorescence polarization, 2 h | P11473 | Potency, µM, for inactives: max response, negative = inhibition, actives largely listed as inhibitors | hit rate 0.93% among 400,000; active means well fitted inhibition curve with a large enough effect; inconclusive means small, poorly fitted or top-dose-only effect, or another doubt; inactive means no such curve, though single readings can be large or run the other way; further: series mostly up to about 120 µM
# Target sequence (P11473 whole entry, looked up): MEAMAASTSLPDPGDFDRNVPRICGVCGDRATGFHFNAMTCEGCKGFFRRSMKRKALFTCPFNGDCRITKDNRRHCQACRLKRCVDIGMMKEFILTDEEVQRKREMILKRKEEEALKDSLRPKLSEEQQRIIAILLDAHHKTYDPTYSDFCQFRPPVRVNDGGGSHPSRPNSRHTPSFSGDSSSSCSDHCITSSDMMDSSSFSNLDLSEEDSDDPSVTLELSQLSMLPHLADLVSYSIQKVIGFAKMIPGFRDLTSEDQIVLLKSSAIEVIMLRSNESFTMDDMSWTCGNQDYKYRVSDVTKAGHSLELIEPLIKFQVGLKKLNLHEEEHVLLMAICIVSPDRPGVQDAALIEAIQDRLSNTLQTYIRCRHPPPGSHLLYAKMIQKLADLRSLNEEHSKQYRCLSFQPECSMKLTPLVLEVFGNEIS
#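 FP read-out; VDR + SRC2-3 coactivator peptide; 23 nl compound by pintool; 2 h RT incubation; reagents held at 4 deg C, protected from light.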
# * = called active by the depositor; u = inconclusive; & = joins results of further samples. On the % scale 0 is the no-effect control and ±100 the full control effect; potency means the concentration at half of the fitted maximal effect. An excerpt; count on the stated rates, not on these rows.
SMILES,VDR inh
CCOC(=O)c1ccccc1NC(=O)C1CC(=O)N(c2ccccc2)C1 (configuration not stated),-2.9%
CCOC(=O)C1Oc2ccccc2C(C(=O)OC)=C1C(=O)OC (configuration not stated),7.6%&1.0%
CCOc1cccc2cc(C(=O)Oc3ccc(OC)cc3)c(=O)oc12,8.1%
Cc1cccc(NC(=O)COn2nnc3ccc(S(C)(=O)=O)cc32)c1,12.0%
CCOc1ccccc1N1CCN(C(=O)Nc2cccc(Cl)c2)CC1,0.8%
CCc1cccc(C)c1NC(=O)CCCn1c(C)c2cnn(-c3ccccc3)c(=O)c2c1C,-5.0%
O=C(Nc1ccc(F)cc1)N1CCN(CCc2ccccc2)CC1,-4.3%
CCOc1cc(/C=C2\C(=N)N3N=C(S(=O)(=O)CC)SC3=NC2=O)ccc1OC(=O)c1ccco1,10.3%
COCCOC(=O)c1c(C)oc2ccc(OS(C)(=O)=O)cc12,5.9%
COc1ccc(S(=O)(=O)N2CCC(NC(=O)C3CCCCC3)CC2)cc1,2.5%
C=CCSc1nc2ccccc2c(=O)[nH]1,15.6%
O=C(Cn1c(=O)n(-c2cccc(Cl)c2)c(=O)c2sc3ccccc3c21)NC1CCCCC1,14.0%
O=C(N/C=C\c1ccccc1)NCc1ccc(Cl)cc1Cl,-3.8%
CN(C)c1ccc(-c2nc(NC3CCNCC3)c3ccccc3n2)cc1,-2.6%
CC(Nc1nc(N2CCN(S(C)(=O)=O)CC2)nc2ccccc12)c1ccccc1 (configuration not stated),8.3%
CC(C)(C)OC(=O)N1CC2Cc3[nH]c(=O)ccc3C(C2)C1 (configuration not stated),-23.6%
O=C(Nc1cccc([N+](=O)[O-])c1)c1cc(S(=O)(=O)N2CCOCC2)cs1,-3.2%
Cn1c(=NC(=O)C2CC2)sc2cccc(F)c21,-9.3%
Cc1noc(C)c1CSCC(=O)Nc1cc(S(=O)(=O)N2CCCCC2)ccc1OC(C)C,13.8%
Cc1c(CC(=O)NCC(=O)N[C@H](Cc2ccccc2)C(=O)O)c(=O)oc2cc(O)ccc12,5.0%
CCn1cc(C(=O)NN)c(=O)c2cc(F)c(N3CCN(C)CC3)cc21,-17.0%
O=C(Nc1nccs1)c1sc2cc(Cl)ccc2c1Cl,13.1%
C[C@@H]1NS(=O)(=O)[C@H]2C[C@@H]3C=C[C@]2(O3)[C@H]1OC(=O)c1ccc(C(C)(C)C)cc1,-1.7%
Cc1ccc(NC(=O)c2sc3ccccc3c2Cl)cc1,11.2%
Cc1cc(S(=O)(=O)N(Cc2ccc3c(c2)OCO3)CC2CCCO2)ccc1-n1cnnn1 (configuration not stated),-1.0%

# Later entries.
SMILES,VDR inh
O=C1CCC/C(=N\NC(=O)NC2CCCCC2)C1,0.6%
O=C(c1ccc(F)cc1)c1cc2ccccc2o1,0.6%
Cc1cc(C)n(-c2nnc(C)n2/N=C/c2ccccc2F)n1,2.4%
COC(=O)c1cccc(NC(=O)Nc2ccc(Cl)c(Cl)c2)c1,21.9%
COc1ccccc1C1CC(c2ccc(F)cc2)Nc2ncnn21 (configuration not stated),12.2%
Cn1c(=O)cc(SCC(=O)NCc2ccc(F)cc2)c2ccccc21,6.0%
CCc1cc2c(NCC3CCCO3)ncnc2s1 (configuration not stated),-10.2%
O=C(N/N=C/C=C\c1ccccc1[N+](=O)[O-])c1ccccn1,-7.9%
Cc1cccc(-n2ccnc2SCC(=O)Nc2ccc3c(c2)OCCO3)c1,7.0%
COc1ccc(N2CCN(C(c3ccccc3)c3sc4nc(C)nn4c3O)CC2)cc1 (configuration not stated),u
CN(CCC(=O)c1ccccc1)CCC(=O)c1ccccc1,-12.3%
Cn1cccc1-c1cc2n(n1)CCC(=O)N2CCCC(=O)NCc1cccc(Cl)c1,9.2%
O=C(CSc1nnc(-c2ccccc2)n1Cc1ccco1)Nc1ccc2c(c1)OCCO2,-15.9%
CCn1c(N)c(C(=O)N2CCOCC2)sc1=S,-11.9%
COC(=O)[C@H]1C[C@@H]1[C@H](NC(=O)c1ccccc1)c1ccccc1,-6.3%
CCOC(=O)c1c(NC(=O)COc2cccc(C(F)(F)F)c2)sc2c1CCC(C)C2 (configuration not stated),u
CCn1cc(C(=O)O)c(=O)c2cnc(N3CCN(C(=S)Nc4ccc(F)cc4)CC3)nc21,3.8%
Cc1cc(=O)oc2cc(OCCSCCN3CCOCC3)ccc12,-6.2%
Cn1ncc2c(O/N=C(\N)c3ccc(C(C)(C)C)cc3)ncnc21,-20.5%
C=CCOC(=O)C1=C[C@@H](c2ccc3c(c2)OCO3)C[C@@H](OCc2ccc(CO)cc2)O1,-20.1%
CCOc1ccc2nc(SCC(=O)NCc3ccc(S(N)(=O)=O)cc3)sc2c1,-12.3%
COCCn1nnnc1CN1C2CCCC1CC(NC(C)=O)C2 (configuration not stated),-19.2%
Cc1cc(C(=O)COC(=O)C2=NNC(=O)CC2)c(C)n1CCc1ccccc1,4.4%
COC(=O)c1ccc(NC(=O)CSc2nccn2Cc2ccc(Cl)cc2)cc1,-0.9%
COc1ccc(CNCCNC(=O)c2cccs2)cc1OC,6.1%

# The results go on:
SMILES,VDR inh
COc1ccc(NC(=O)C2CCN(C3=NS(=O)(=O)C(c4ccc(C)c(C)c4)=C3C)CC2)cc1OC,2.0%
CN1CCN(C(=O)N2c3ccccc3C=Cc3ccccc32)CC1,-23.8%
COc1ccc(Oc2ncc3ncc(=O)n(CCC#N)c3n2)cc1,-0.8%
Cc1ccc2nc(COc3ccccc3NC(=O)c3ccc(F)cc3)cc(=O)n2c1,4.7%
C=CCNc1nc(Cl)nc(Nc2ccccc2)n1,7.0%
CCCOC(=O)C1=C(C)NC(=O)NC1c1ccc(Br)s1 (configuration not stated),-6.7%
COc1ccc(N(CC(=O)NCc2ccc(F)cc2)S(=O)(=O)c2c(C)noc2C)cc1,-3.2%&-11.9%
CN(C[C@H](Cc1ccccc1)N(C[C@H](Cc1ccccc1)N(CCC(C)(C)C)N=O)N=O)N=O,-12.4%
CN(Cc1ccccc1)C(=O)CN1C(=O)NC2(CCCC2)C1=O,11.4%
Cc1occc1C(=O)NNC(=O)Nc1ccc(F)cc1F,-0.5%
Nc1ccc2[nH]c(=S)sc2c1,28.2µM*
Nc1ccncc1N,-9.7%&11.6%
Cc1ccc(C(=O)NCC(=O)Nc2ccc3c(c2)CCC3)cc1,-0.2%
CC(=O)Nc1nc(-c2ccc3c(c2)CC(C)N3C(=O)C2CC2)c(C)s1 (configuration not stated),-6.1%
O=S(=O)(NNc1ncc(C(F)(F)F)cc1Cl)c1ccc(F)cc1F,-21.4%
CCC(=O)N1CCc2cc(S(=O)(=O)NCCN3CCCCC3CC)ccc21 (configuration not stated),14.4%
C=CCOc1cccc(C2/C(=C(/O)c3ccc(C)cc3)C(=O)C(=O)N2CCN2CCOCC2)c1 (configuration not stated),-15.0%
CC[C@]12c3[nH]c4cc(-c5ccco5)ccc4c3CCN1C(=O)[C@@H](CC(=O)NCCCOC)C[C@@H]2C(=O)N1CCN(C(=O)C2CC2)CC1,-25.2%
Cc1cccc(OC(C)C(=O)N/N=C\c2ccncc2)c1 (configuration not stated),15.5%
CN(C)S(=O)(=O)c1cccc(C(=O)NCC2(N3CCOCC3)CCCCC2)c1,u
CCCCC(=O)Nc1ccc(C(=O)NNC(=O)c2ccc(C)c(Br)c2)cc1,-19.5%
Cc1ccc(-n2nc3c(=O)n(CC(=O)NCCc4cccs4)nc(C)c3c2C)cc1,-1.2%
O=C(CN1C(=O)NC2(CCCCCCC2)C1=O)Nc1ccc(Br)cc1,10.7%
Cc1ccc(-c2ccnc(=S)[nH]2)cc1,-20.3%
C=CCn1c(CCNC(=O)c2ccccc2F)nnc1SCC(=O)Nc1nc(C)cs1,22.2%

# Overlap with the part before: three compounds, followed by the next part.
SMILES,VDR inh
O=C(CN1C(=O)NC2(CCCCCCC2)C1=O)Nc1ccc(Br)cc1,10.7%
Cc1ccc(-c2ccnc(=S)[nH]2)cc1,-20.3%
C=CCn1c(CCNC(=O)c2ccccc2F)nnc1SCC(=O)Nc1nc(C)cs1,22.2%
COCCOC(=O)c1c(C)n(C)c2ccc(OC(=O)c3c(OC)cccc3OC)cc12,u
O=S(=O)(O)c1nc2ccccc2n1Cc1ccccc1,-1.4%
CN(Cc1ccccc1)c1ccc(S(=O)(=O)N2CCC(C(=O)O)CC2)cc1[N+](=O)[O-],-17.0%
Nc1ccccc1Sc1nc2ccccc2[nH]1,20µM*
NC(=O)c1ccc(NC(=O)CCC(=O)N2CCN(S(=O)(=O)c3ccc(Cl)cc3)CC2)cc1,10.6%
CCOP(=O)(OCC)c1nc(-c2ccc(Cl)cc2Cl)oc1N1CCCCC1,2.1%
C/C(Cc1ccccc1)=N\NC(=O)CNC(=O)c1cccc(F)c1,-3.3%
COC1=C2C[C@@H](C)C[C@H](OC)[C@H](O)[C@@H](C)/C=C(\C)[C@H](OC(N)=O)[C@@H](OC)/C=C\C=C(/C)C(=O)NC(=CC1=O)C2=O,u
COc1cccc(C(=O)Nc2ccccc2C(=O)OCc2cc(=O)n3nc(C)sc3n2)c1,-2.0%
Cc1ccc(C(=O)Nc2nc3ccc(S(C)(=O)=O)cc3s2)o1,-13.6%
O=Cc1ccccc1-n1cccn1,12.5%
Cc1csc(=O)n1CCC(=O)OCC(=O)Nc1ccc(F)c(F)c1F,5.7%
CCN(CC)CCCn1c2c(c(SCC(=O)Nc3ccc4c(c3)OCO4)nc1=O)CCC2,2.9%
Cc1cc(NC(=O)CSc2nc3ccccc3c(=O)n2Cc2ccc(F)cc2)no1,3.0%
N#CC(c1cccc(C(F)(F)F)c1)(c1ncc(C(F)(F)F)cc1Cl)N1CCOCC1 (configuration not stated),-3.9%
O=C(O)C1Nc2c(Cl)cc(Cl)cc2C2C=CCC12 (configuration not stated),u
CC1CCN(C(=O)CN(c2ccc(Cl)c(C(F)(F)F)c2)S(C)(=O)=O)CC1,5.5%
CC(=O)c1ccc(OCCNS(=O)(=O)c2ccc(-n3cnnn3)cc2)cc1,-5.8%
CCOC(=O)C1=C(O)C(Nc2nccs2)(C(F)(F)F)N=C1C (configuration not stated),7.8%
COc1ccc(S(=O)(=O)N2CCN(C(=O)CCC3CCCC3)CC2)cc1,0.9%
COC(=O)c1ccc(/C=C/C(=O)O)cc1,-28.8%
O=C(NCc1ccccc1Cl)C1=CC=CN2CCS(=O)(=O)N=C12,-20.7%
CN1C(=O)NC(NS(=O)(=O)c2ccc(N)cc2)(C(F)(F)F)C1=O (configuration not stated),-0.7%
C#CCOCCOCCOCCNc1nc(N2CCN(C(=O)[C@H](CCC(=O)O)n3cc([C@@H](N)[C@H](C)CC)nn3)CC2)nc(N2CCN(C(=O)[C@H](CCCCN)n3cc([C@@H](N)CC(N)=O)nn3)CC2)n1,-10.6%
CCCCN(C)C(=O)C1CCN(Cc2cccnc2)CC1,7.5%

# (listing goes on)
SMILES,VDR inh
COc1ccccc1/C=C/CN1CCCC(CCC(=O)NCc2ccccc2F)C1 (configuration not stated),6.2%
C=CC[C@@H](CC(=O)N(CCO)Cc1ccccc1)C(=O)N[C@@H](COC(=O)[C@@H](CC=C)Cc1ccc(F)cc1)Cc1ccccc1,-5.6%
CC1(C)S[C@@H]2[C@H](NC(=O)COc3ccccc3)C(=O)N2C1C(=O)OCc1ccccc1 (some centres not stated),14.4%
CCc1ccc(NC(=O)Cn2ncc3c4ccccc4n(C)c3c2=O)cc1,u
CC(=O)OCCNc1cc(N2CCN(C)CC2)c2noc3c2c1C(=O)c1ccccc1-3,u
COc1ccc(S(=O)(=O)N2CCOCC2)cc1NC(=O)COC(=O)CC1CC2CCC1C2 (configuration not stated),-3.6%
COc1ccc(-c2nnc(CSc3nc4ccccc4c(=O)n3C)o2)cc1OC,13.9%
COc1ccc(-c2cn3cccnc3n2)cc1NC(=O)Nc1cc(C)ccc1C,3.0%
O=C(O)C1Sc2[nH]c(=O)sc2C2c3cc(Br)ccc3OC(=O)C12 (configuration not stated),u
O=[N+]([O-])c1ccc(CS(=O)Cc2ccccc2)cc1 (configuration not stated),1.0%
NC(=S)c1ccc(C(N)=S)o1,-16.6%
COc1ccc(C(=O)Nc2ccc(C(=O)OCC(=O)c3cccc4ccccc34)cc2)cc1,1.8%
COc1ccccc1N1C(=S)N=C(Nc2c(C)cccc2C)C12CCCC2,-1.2%
COc1ccc(NC(=O)c2nn(C)cc2[N+](=O)[O-])cc1,-0.6%
COC(=O)c1ccc(S(=O)(=O)c2ccc(C(=O)OC)s2)s1,1.8%
CCN(CC)c1ccc(NC(=O)c2cc(OC)cc(OC)c2)c(C)c1,14.7%
Oc1ccc(Br)cc1C=Nc1ccc2[nH]ncc2c1,-2.2%
CCOc1ccc(-c2n[nH]c3c2C(c2cccs2)N(c2ccc(Br)cc2)C3=O)cc1 (configuration not stated),-4.3%
Cc1nc(C)c(-c2ccc(SCC(=O)Nc3ccc(C)c(Cl)c3)nn2)s1,4.8%
O=C(NCCCn1ccnc1)C(=O)NCC1OCCCN1S(=O)(=O)c1ccc(F)cc1 (configuration not stated),-18.6%
CC12CN(NC(=O)c3ccccc3F)C3(C#N)CC1CCC23C (configuration not stated),-9.6%

# A stretch from further up, for reference:
SMILES,VDR inh
COC(=O)c1ccc(S(=O)(=O)c2ccc(C(=O)OC)s2)s1,1.8%
CCN(CC)c1ccc(NC(=O)c2cc(OC)cc(OC)c2)c(C)c1,14.7%
Oc1ccc(Br)cc1C=Nc1ccc2[nH]ncc2c1,-2.2%
CCOc1ccc(-c2n[nH]c3c2C(c2cccs2)N(c2ccc(Br)cc2)C3=O)cc1 (configuration not stated),-4.3%
Cc1nc(C)c(-c2ccc(SCC(=O)Nc3ccc(C)c(Cl)c3)nn2)s1,4.8%
O=C(NCCCn1ccnc1)C(=O)NCC1OCCCN1S(=O)(=O)c1ccc(F)cc1 (configuration not stated),-18.6%
CC12CN(NC(=O)c3ccccc3F)C3(C#N)CC1CCC23C (configuration not stated),-9.6%
